# VACV Venus inh: inhibitors of vaccinia virus (Venus reporter) | 330,000 tested, 0.46% active | Potency, µM (highest dose often 36.5 µM), inactives show at the top dose activity change, negative = inhibition, hits mostly inhibitors | AID 720580 | Vaccinia virus Venus reporter expression, fluorescence; active means well fitted inhibition curve with a large enough effect; inconclusive means small, poorly fitted or top-dose-only effect; inactive means no such curve, though single readings can be large or run the other way; tested in A549 cells; further: nearly all actives have a fitted effect of over 30% in size; inactives centre near -10
# Vaccinia mCherry: vaccinia inhibition (mCherry reporter); Vaccinia virus mCherry reporter infection, fluorescence; about a quarter of the inactives have no number; Potency, µM (titrated, usually from 36.5 µM), for inactives: at the top dose activity change, negative = inhibition, most hits filed as inhibitors; 310,000 tested, 0.63% active; active = well fitted inhibition curve with a large enough effect; inconclusive = small, poorly fitted or top-dose-only effect; inactive = no such curve, though single readings can be large or run the other way; tested in A549 cells; further: nearly all actives have a fitted effect of over 35% in size; inactives centre near -10
# An asterisk follows results filed as active; i = inactive; ? = inconclusive; . = not tested or not shown; & = joins results of further samples. On the % scale 0 is the no-effect control and ±100 the full control effect; potency means the concentration at half of the fitted maximal effect.
SMILES,VACV Venus inh,Vaccinia mCherry
O=C(O)c1nn(CCOc2ccc(Cl)cc2Cl)c(=O)c2ccccc12,0%,-17%
O=C(c1ccco1)N(Cc1cccc(Cl)c1)C1CCS(=O)(=O)C1 (stereo not given),-6%,i
CCOC(=O)c1nn(-c2cc(C(=O)OC)cc(C(=O)OC)c2)cc1O,-8%,-13%
CCOC(=O)Cn1nc(C)cc1NC(=O)c1ccncc1,1%,-11%
Cc1nc(C(F)(F)F)ccc1C(=O)N1CCC1(C)C(=O)NS(C)(=O)=O (stereo not given),2%,1%
Cc1cc(C)c(S(=O)(=O)Nc2cccc(S(=O)(=O)NC3=NCCC3)c2)c(C)c1,-6%,-15%
Cc1c(C)c2ccc(OCC(=O)N(C)C)c(C)c2oc1=O,-26%,-2%
O=c1cc(C(F)(F)F)nc(-n2[nH]c3c(c2=O)CCCC3)[nH]1,16%,-10%
CCN(CC(=O)NCc1ccc(F)cc1)C(=O)/C=C/c1cc(OC)ccc1OC,-3%,-15%
CCCCN(C=O)c1c(CC)nc2ccc(C(=O)NCCCN3CCCC3=O)cn12,-22%,24%
CC(=O)CC(c1ccc([N+](=O)[O-])cc1)c1c(O)c2ccccc2oc1=O (stereo not given),-12%,-21%
CCOC(=O)c1[nH]c(C)c(CC(C)C)c1C,-6%,-12%
CCOC(=O)C1CCN(c2c(NC3CCCCCCC3)c(=O)c2=O)CC1,-5%,-1%
CC(=O)c1cccc(-c2ccnc3c2CC(C(=O)Nc2cccc(OC(F)(F)F)c2)O3)c1 (stereo not given),-24%,15%
COc1ccc(Cl)cc1NC(=O)NCC1CCN(Cc2ccccc2F)CC1,-24%,-15%
c1csc(-c2nc3c4ccccc4c4ccccc4c3[nH]2)c1,?,?
Cc1cc2c(cc1C)-c1nnnn1C(N1CCCCC1)C(=O)N2 (stereo not given),-10%,i
CSc1cccc(NC(=O)CN(C)S(=O)(=O)c2ccc3c(c2)n(C)c(=O)c(=O)n3C)c1,-13%,-11%
O=S(=O)(Nc1ccccc1Cl)c1cc(NC(=S)NCCN2CCOCC2)ccc1Cl,-12%,-15%
COc1ccc(OCc2nnc3n2N=C(c2ccc(OC)cc2)CS3)cc1,-15%,-17%

# Part of the list above in order of heavy-atom count, smallest number first.
SMILES,VACV Venus inh,Vaccinia mCherry
CCOC(=O)c1[nH]c(C)c(CC(C)C)c1C,-6%,-12%
CCOC(=O)c1nn(-c2cc(C(=O)OC)cc(C(=O)OC)c2)cc1O,-8%,-13%
Cc1cc(C)c(S(=O)(=O)Nc2cccc(S(=O)(=O)NC3=NCCC3)c2)c(C)c1,-6%,-15%

# Next compounds follow:
SMILES,VACV Venus inh,Vaccinia mCherry
COc1ccccc1CNC(=O)CCn1c(=O)oc2ccccc21,1%,-16%
CN(C)C(=O)c1ccc(NC(=O)Cn2nnnc2-c2ccccc2F)cc1,6%,-8%
C=CCn1c(-c2cccc(OC)c2OC)n[nH]c1=S,-9%,-9%
O=C(NCC(c1ccccc1)c1ccccc1)c1nn(-c2ccccc2Cl)nc1CO,-21%,-13%
COc1ccc(OC)c2c1cc(C(=O)N[C@H](C(=O)N1CCC(C(=O)O)CC1)C(C)C)n2C,-12%,-5%
COc1ccc(-c2csc(NC(=O)c3ccccc3C(=O)O)n2)cc1,-14%,i
COc1cc2ccccc2cc1C(=O)N(CCN(C)C)c1nc2c(OC)ccc(OC)c2s1,?,-23%
COc1ccc(NC(=O)c2cc(-c3ccccc3Cl)no2)cc1,-15%,.
CC1(C)Cc2nc3oc4c(=O)n(CC(=O)Nc5cccc(Cl)c5)cnc4c3cc2CO1,4%,i
COc1cc(NC(=O)c2nc3nc(C)cc(C(F)F)n3n2)c(OC)cc1Cl,-2%,1%
N#CC(c1ccccc1)C(CC(=NO)c1ccccc1)c1ccccc1 (stereo not given),-21%,i
COc1cc(NC(=S)N2CCN(C(=O)C3CCCO3)CC2)c(OC)cc1Cl (stereo not given),-8%,i
O=C(Cn1nc(C(F)F)cc1C(F)F)NNC(=S)Nc1ccc([N+](=O)[O-])cc1,-11%,-14%
CCOCCCNC(=O)C(c1ccc(Cl)cc1)N1CCN(c2ccccc2)CC1 (stereo not given),-12%,-3%
Cc1ccc(S(=O)(=O)N2CCC(C(=O)C3C(=O)CC(C)(C)CC3=O)CC2)cc1,-5%,i
CCCn1c(SC(C(=O)Nc2cccc(OC)c2)c2ccccc2)nc2ccccc2c1=O (stereo not given),-9%,-18%
O=C(NCc1ccncc1)C1CCCN1S(=O)(=O)c1ccc(Cl)cc1 (stereo not given),-7%,-16%
C#CCSc1nnnn1-c1ccc(OCC)cc1,-15%,-8%
CSc1nnc(NC(=O)c2ccc(S(=O)(=O)N(C)C)cc2)s1,-14%,-2%
N=c1c(C(=O)NCC2CCCO2)cc2c(=O)n3ccccc3nc2n1Cc1ccco1 (stereo not given),-10%,-9%
CCC(Sc1nncn2c1cc1oc(C)cc12)C(=O)Nc1ccc(F)cc1 (stereo not given),-14%,-7%
C[C@]12C(=O)N(c3ccc(C(F)(F)F)cc3)C(=O)N1[C@H]1c3ccccc3OC[C@@H]1[C@H]2c1ccccc1,-4%,1%
COc1cc(OC)cc(N(C(=O)CNC(=O)c2cccs2)C(C(=O)NCC2CCCO2)c2ccc(OC)c(OC)c2)c1 (stereo not given),-5%,i
CCOC(=O)c1c(NC(=O)CSc2cn(CC)c3ccccc23)sc2c1CCC2,-10%,i
Cn1cnc(S(=O)(=O)N2CCCCC2c2cc(C(=O)NCc3ccc(F)cc3)no2)c1 (stereo not given),-5%,-2%
O=C(CNCc1ccccn1)Nc1cc(S(=O)(=O)N2CCCCC2)ccc1Cl,-14%,?
Cc1csc(NC(=O)CS(=O)(=O)c2ccccc2)n1,-7%,-15%
Cc1ccc(Cl)cc1-n1ncc2c(N3CCC(C(N)=O)CC3)ncnc21,-6%,4%
Clc1ccc(CSc2nnc(CNc3cccc(Cl)c3)o2)cc1,-7%,-13%
CCC(Oc1ccccc1)C(=O)Nc1ccc(S(=O)(=O)N2CCOCC2)cc1 (stereo not given),-14%,-12%
Cc1c(C(=O)NCc2ccc(N(C)C)cc2)oc2c1-c1nn(Cc3cccc(Cl)c3)cc1CC2,-18%,-23%
S=C(Nc1cccc(Cl)c1)Nc1cccc2cnccc12,-4%,i
Cc1ccccc1-n1nc(C)c2cc(C(=O)N3CCN(S(=O)(=O)c4ccccc4)CC3)sc21,-8%,-6%
CCOC(=O)C1=NN2C(O)C3(C)CC(C(=O)OCC)=NN3C(O)C2(C)C1 (stereo not given),-7%,i
O=C(COc1cccc(Cl)c1)NNC(=S)Nc1ccccc1,-2%,-4%
Cc1ccc2nc(-c3cccc(Br)c3)cc(C(=O)Nn3cnnc3)c2c1,-15%,-7%
COc1ccccc1S(=O)(=O)Cc1ccc(C(=O)N2CCCC2)o1,-9%,4%
Cc1ccc(-c2nc(-c3cccnc3)sc2CC(=O)Nc2ccc(C)c(Cl)c2)cc1,-27%,-30%
COc1ccc(N2C(=O)c3cccc4cccc(c34)C2=O)cc1,-9%,-12%
CCOC(=O)C1(CCC(C)C)CC(CSc2nc3ccccc3[nH]2)OC1=O (stereo not given),-12%,-11%
CCOC(=O)c1cc(-c2ccccc2)n(CC(=O)Nc2ccccc2OCC)c1C,-4%,-8%
CCN(CC)CCNC(=O)c1ccc(NC(=O)C2CC(=O)N(c3ccc4c(c3)OCCO4)C2)cc1 (stereo not given),-9%,i
CCOC(=O)c1cnc(SC)nc1Sc1ccccc1,-5%,.
CC1=C(C(=O)Nc2ccccc2C(=O)NCc2ccccc2)SCCO1,2%,6%
Cc1cccc(/N=C/c2c(C)[nH]n(-c3ccccc3)c2=O)n1,-1%,-8%
COc1cc(NC(=O)CN2CCN(CC(=O)Nc3ccc(F)cc3)CC2)cc(OC)c1,-12%,-9%
CC12c3ccccc3C(c3ccccc31)C1C(=O)N(Cc3cccnc3)C(=O)C12 (stereo not given),-7%,i
S=c1[nH]nc(COc2ccccc2)n1/N=C/c1ccco1,-10%,-3%
COc1ccc(OC)c(NC(=O)c2ccc3c(=O)n(CCc4ccccc4)c(=S)[nH]c3c2)c1,-9%,-10%
CC(=O)c1ccc(C(=O)N2CCCC(CCC(=O)N(C)CCc3ccccn3)C2)s1 (stereo not given),-9%,i
COc1ccccc1CNC(=O)C1CC(c2ccc([N+](=O)[O-])cc2)=NO1 (stereo not given),-11%,-4%
COc1ccc(C(=O)C2CCCN(C3CSCCSC3)C2)c(OC)c1 (stereo not given),-2%,-6%
CC(=O)n1nc(-c2cccnc2)nc1NCc1ccc(F)cc1,-7%,-12%
O=S(=O)(NCc1cc(-c2ccc(Cl)cc2)no1)c1ccc(Cl)cc1,-23%,-30%
CN(CC(=O)O/N=C(\N)c1ccc([N+](=O)[O-])cc1)S(=O)(=O)c1ccc2ccccc2c1,-8%,i
CCOC(=O)Cn1c(=O)c2c(nc3n2CCCN3Cc2ccccc2)n(C)c1=O,-4%,-6%
Cc1cc(C)c(C)c(S(=O)(=O)N[C@@H](C)C(=O)OCC(=O)NC2CCCC(C)C2C)c1C (stereo not given in full),-11%,-13%
Cc1ccc(-c2nnc(SCC(=O)NCc3ccccc3)nc2-c2ccc(C)cc2)cc1,-8%,-15%
Cn1c(=O)c2c(ncn2CC(=O)Nc2nccs2)n(C)c1=O,-14%,i
Cc1ccccc1S(=O)(=O)NC(=O)C1(C)CCN1C(=O)C1(c2ccc(Cl)cc2)CCC1 (stereo not given),5%,-13%

# 26 compounds from above, arranged by formula weight, smallest number first:
SMILES,VACV Venus inh,Vaccinia mCherry
Cc1cccc(/N=C/c2c(C)[nH]n(-c3ccccc3)c2=O)n1,-1%,-8%
S=c1[nH]nc(COc2ccccc2)n1/N=C/c1ccco1,-10%,-3%
COc1ccc(N2C(=O)c3cccc4cccc(c34)C2=O)cc1,-9%,-12%
CCOC(=O)c1cnc(SC)nc1Sc1ccccc1,-5%,.
CC(=O)n1nc(-c2cccnc2)nc1NCc1ccc(F)cc1,-7%,-12%
Cn1c(=O)c2c(ncn2CC(=O)Nc2nccs2)n(C)c1=O,-14%,i
O=C(COc1cccc(Cl)c1)NNC(=S)Nc1ccccc1,-2%,-4%
COc1ccccc1S(=O)(=O)Cc1ccc(C(=O)N2CCCC2)o1,-9%,4%
COc1ccccc1CNC(=O)C1CC(c2ccc([N+](=O)[O-])cc2)=NO1 (stereo not given),-11%,-4%
CCOC(=O)C1=NN2C(O)C3(C)CC(C(=O)OCC)=NN3C(O)C2(C)C1 (stereo not given),-7%,i
CC12c3ccccc3C(c3ccccc31)C1C(=O)N(Cc3cccnc3)C(=O)C12 (stereo not given),-7%,i
COc1ccc(C(=O)C2CCCN(C3CSCCSC3)C2)c(OC)c1 (stereo not given),-2%,-6%
O=S(=O)(NCc1cc(-c2ccc(Cl)cc2)no1)c1ccc(Cl)cc1,-23%,-30%
CCOC(=O)C1(CCC(C)C)CC(CSc2nc3ccccc3[nH]2)OC1=O (stereo not given),-12%,-11%
CCOC(=O)Cn1c(=O)c2c(nc3n2CCCN3Cc2ccccc2)n(C)c1=O,-4%,-6%
CCOC(=O)c1cc(-c2ccccc2)n(CC(=O)Nc2ccccc2OCC)c1C,-4%,-8%
Cc1ccc2nc(-c3cccc(Br)c3)cc(C(=O)Nn3cnnc3)c2c1,-15%,-7%
CC(=O)c1ccc(C(=O)N2CCCC(CCC(=O)N(C)CCc3ccccn3)C2)s1 (stereo not given),-9%,i
COc1cc(NC(=O)CN2CCN(CC(=O)Nc3ccc(F)cc3)CC2)cc(OC)c1,-12%,-9%
Cc1ccc(-c2nc(-c3cccnc3)sc2CC(=O)Nc2ccc(C)c(Cl)c2)cc1,-27%,-30%
Cc1ccc(-c2nnc(SCC(=O)NCc3ccccc3)nc2-c2ccc(C)cc2)cc1,-8%,-15%
CN(CC(=O)O/N=C(\N)c1ccc([N+](=O)[O-])cc1)S(=O)(=O)c1ccc2ccccc2c1,-8%,i
Cc1cc(C)c(C)c(S(=O)(=O)N[C@@H](C)C(=O)OCC(=O)NC2CCCC(C)C2C)c1C (stereo not given in full),-11%,-13%
Cc1ccccc1S(=O)(=O)NC(=O)C1(C)CCN1C(=O)C1(c2ccc(Cl)cc2)CCC1 (stereo not given),5%,-13%
COc1ccc(OC)c(NC(=O)c2ccc3c(=O)n(CCc4ccccc4)c(=S)[nH]c3c2)c1,-9%,-10%
CCN(CC)CCNC(=O)c1ccc(NC(=O)C2CC(=O)N(c3ccc4c(c3)OCCO4)C2)cc1 (stereo not given),-9%,i

# Remaining list, next part.
SMILES,VACV Venus inh,Vaccinia mCherry
COc1ccc(OC)c(C2CC(=O)C3=C(C2)NC(=O)CC3c2ccc(O)c(OC)c2)c1 (stereo not given),?,.
CCO[C@@H]1OC(C(=O)N2CCOCC2)=C[C@H](c2ccccc2)[C@H]1CCCO,-10%,-11%
CCN(CC1CCCO1)C(=O)c1cc(COc2ccccc2SC)on1 (stereo not given),-8%,0%
O=C(c1ccco1)N1CCN=C1SCc1ccc(F)cc1,4%,i
CCCCN(C=O)c1c(CC)nc2c(OCC(=O)N3CCOCC3)cccn12,5%,7%
O=S(=O)(NCc1ccccc1)c1ccc(S(=O)(=O)N(Cc2ccccn2)C2CCCC2)cc1,-13%,-19%
Cc1c(NC(=O)c2cc(-c3ccc(F)cc3)on2)c(=O)n(-c2ccccc2)n1C,-13%&0%,-20%&-7%
CCOc1ccccc1OCC(=O)Nc1ccc(Cl)cc1Cl,-8%,-12%
